Six1-Eya2 blk – Six1/Eya2 interaction inhibition; activity change, % (no concentration beside the values); AlphaScreen GST-Six1/His-Eya2 binding, biochemical; hits give low values; control for the full effect not named in the record; 360,000 compounds, 0.56% hits; AID 651725; in the data active = activity change below about -65%; inconclusive = about -30% to -65%; inactive = above about -30%; further: on the % scale 0 is the no-effect control and ±100 the full control effect
Target sequence (O00167 whole entry, looked up): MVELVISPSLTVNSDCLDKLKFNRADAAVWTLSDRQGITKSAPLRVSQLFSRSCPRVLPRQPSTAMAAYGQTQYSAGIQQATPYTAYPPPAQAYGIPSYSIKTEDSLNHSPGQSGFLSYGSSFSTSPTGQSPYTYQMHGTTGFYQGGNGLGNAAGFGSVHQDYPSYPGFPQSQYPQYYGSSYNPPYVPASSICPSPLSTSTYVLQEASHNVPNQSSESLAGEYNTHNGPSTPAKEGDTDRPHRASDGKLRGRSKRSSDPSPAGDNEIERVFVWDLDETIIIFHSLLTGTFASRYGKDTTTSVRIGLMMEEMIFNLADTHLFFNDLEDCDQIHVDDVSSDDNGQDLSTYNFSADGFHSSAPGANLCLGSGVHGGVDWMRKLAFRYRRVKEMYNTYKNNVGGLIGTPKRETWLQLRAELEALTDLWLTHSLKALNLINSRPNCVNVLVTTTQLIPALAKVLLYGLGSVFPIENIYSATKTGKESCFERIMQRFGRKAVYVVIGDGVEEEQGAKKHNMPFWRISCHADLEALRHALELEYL
Target sequence (Q15475 whole entry, looked up): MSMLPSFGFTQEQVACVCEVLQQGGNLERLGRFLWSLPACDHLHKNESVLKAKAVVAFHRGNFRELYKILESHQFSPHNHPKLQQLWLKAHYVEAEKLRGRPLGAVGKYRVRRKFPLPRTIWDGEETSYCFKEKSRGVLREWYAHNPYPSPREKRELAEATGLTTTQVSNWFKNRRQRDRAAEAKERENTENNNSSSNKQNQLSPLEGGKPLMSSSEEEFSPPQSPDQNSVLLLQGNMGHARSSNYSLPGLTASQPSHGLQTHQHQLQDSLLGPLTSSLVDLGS
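Six1/Eya2 binding was read as AlphaScreen signal after compounds were pinned into GST-Six1 plus His-tagged Eya2 (5X stock 250/500 nM) in pH 8.0 Tris/NaCl/TCEP buffer, beads added, then incubated 1 h, 37 C, dark.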
TRPML1 blocker – blocks the human TRPML1 channel. Q9GZU1. TRPML1-inducible cells, Ca2+ dye fluorescence, FDSS; hits give low values; inhibition of EC80 agonist-evoked calcium signal. activity change, negative = inhibition, % (no concentration beside the values). 390,000 compounds, 0.02% hits; in the data active means activity change below about -50%; inconclusive means about -30% to -50%; inactive means above about -30%;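 further: stimulus is agonist 54-4 at its EC80 concentration; on the % scale 0 is the no-effect control and ±100 the full control effect; compound concentration not given in the record; the text of the record puts the active cut at -80%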
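TRPML1-DL cells, Tet-induced overnight (~16 h, 37 °C) at 1,500 cells/well, were loaded with Ca8 no-wash dye plus quencher for 45-90 min at room temperature. Compounds were pinned during FDSS kinetic reading; agonist 54-4 at EC80 (4 uM final) then added.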
CtBP-E1A blk – CtBP/E1A binding inhibition; AlphaScreen GST-E1A/His-CtBP binding, 1536-well; hits give low values; control for the full effect not named in the record; 340,000 compounds, 0.49% hits; AID 651724; activity change, % (test concentration not listed); in the data active means activity change below about -65%; inconclusive means about -30% to -65%; inactive means above about -30%; further: on the % scale 0 is the no-effect control and ±100 the full control effect
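AlphaScreen with 125 nM GST-E1A and 125 nM His-CtBP (5X stocks) in Tris pH 8.0, 300 mM NaCl, BSA, Tween 20, TCEP. Compounds preincubated 2 h at 37 deg C, then glutathione donor/nickel acceptor beads added for 1 h at 37 deg C in dark.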
TRPV1 potentiator – enhances activation of the human vanilloid receptor TRPV1 | TRPV1-expressing cells, Fluo-8 calcium influx, capsaicin EC20 potentiation; host cell line not named in the record; control for the full effect not named in the record | potentiation, % at 8.33 µM | 320,000 compounds, 0.02% hits | AID 540277; active means potentiation above 80%; inconclusive means 30% to 80%; inactive means below 30%; further: 0% is about no effect
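TRPV1-expressing cells were cultured overnight at 35.5C and loaded with Fluo-8 calcium dye for 40 to 90 min at room temperature. After a 10 s baseline, compound was added and calcium influx was read kinetically for 3 min (ex 480/em 520 nm).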
D2 PAM – positive allosteric modulators of human D2 dopamine receptor | P14416 | DiscoveRx D2 beta-arrestin cells, luminescence, 90 min; 100% = 57 uM dopamine signal | potentiation, % (test concentration not listed) | 360,000 compounds, 0.23% hits; active = potentiation of 50% or more; inconclusive = 30% to 50%; inactive = 30% or less;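 further: compound concentration not given in the record; tested on top of an EC20 dose of dopamine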
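D2 cells co-treated with compound plus 50 nM dopamine (EC20) for 90 min at 37 deg C to detect potentiation. Beta-arrestin recruitment was read as enzyme-fragment luminescence after 1 h at ambient temperature. Full response was set by 57 uM dopamine.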
TRPML1 agonist – activates the human TRPML1 channel. TRPML1-expressing cells, Ca2+ dye fluorescence, FDSS; host cell line not named in the record; reference of the full effect not given here. AID 624414. 410,000 compounds, 0.12% hits. Q9GZU1. activation, % (concentration not given with the values); in the data active = activation above about 50%; inconclusive = about 30% to 50%; inactive = below about 30%; further: 0% is about no effect; the text of the record puts the active cut at 80%
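In this qHTS format, compounds were pin-transferred onto Ca8-dye-loaded TRPML1-DL cells induced with Tet overnight, and intracellular Ca2+ fluorescence was recorded kinetically for 110 s after a 10 s baseline. A subsequent 4uM final 54-4 (EC80) addition followed by a second 110 s read served as the antagonist phase.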
* hit, by the source's call; ? = inconclusive; . = not tested or not shown.

SMILES | Six1-Eya2 blk | TRPML1 blocker | CtBP-E1A blk | TRPV1 potentiator | D2 PAM | TRPML1 agonist
COc1ccc2c(c1)C(C)=CC(C)(C)N2C(=O)Nc1ccccc1 | -15.0 | -6.9 | -8.4 | -19.6 | 12.4 | 0.6
Cc1cc([N+](=O)[O-])c(NC2CCCCC2)c([N+](=O)[O-])c1 | -69.3* | 15.2 | -67.5* | . | -4.5 | ?
CCCCn1c(N)c(N(CCOC)C(=O)c2cc(-c3ccco3)nc3ccccc23)c(=O)[nH]c1=O | -4.9 | -0.2 | -0.6 | 7.9 | 5.7 | 0.7
CCOC(=O)Cc1csc(NS(=O)(=O)c2ccc3ccccc3c2)n1 | -6.0 | -2.3 | -3.9 | 5.2 | -3.2 | -0.8
O=c1ccnc(S/C=C/c2ccccc2)[nH]1 | 9.0 | 7.0 | -5.8 | -3.6 | -3.0 | 5.1
CCOc1cc(C(=O)NC(C)CCc2ccccc2)cc(OCC)c1OCC (configuration not stated) | -1.3 | 52.3 | 14.8 | -12.0 | -2.2 | 1.1
CC(C)NC(=O)c1cc(C2CCCCN2C(=O)c2cc(C(C)(C)C)nn2C)on1 (configuration not stated) | -1.0 | . | 2.4 | . | -0.8 | -0.4
CCOC(=O)[C@]12CCC=C1N(Cc1ccc(Cl)cc1Cl)C(=O)[C@H](CC(=O)NCc1cccc(C(F)(F)F)c1)C2 | -0.3 | . | 5.9 | . | . | 0.7
Cc1c(CCC(=O)O)c(=O)oc2cc3occ(-c4ccc(Br)cc4)c3cc12 | ? | 11.1 | ? | -6.2 | -1.2 | -0.5
Cc1ccc(C(=O)C(O)C(c2ccc(C)cc2)N2CCCCC2)cc1 (configuration not stated) | -3.1 | -8.6 | 2.0 | 0.0 | -12.0 | 1.2
Clc1ccc(Nc2nc3cccnc3s2)cc1 | 17.7 | 1.6 | 18.1 | -0.4 | 3.1 | 0.9
CCN(CC(=O)Nc1ccccc1C(F)(F)F)C(=O)CSCC(=O)Nc1cc(C)on1 | 6.5 | 6.8 | -4.5 | -8.2 | 16.8 | -0.6
Cc1cc(CNC(=O)C2CCC(=O)N(CCc3ccc(Cl)cc3)C2)no1 (configuration not stated) | 0.3 | 19.2 | -0.6 | 0.0 | -16.4 | 0.1
O=C(Nc1nncs1)c1ccc2c(c1)OCO2 | -1.6 | 0.6 | 0.1 | 14.0 | -1.8 | 7.1
Cc1ccc(S(=O)(=O)NCC(=O)NCC(=O)OC(C(=O)NC(N)=O)C(C)C)cc1C (configuration not stated) | 13.9 | -12.5 | 8.2 | 8.6 | 0.3 | -0.5
Cn1c(=O)[nH]c(=O)c2c1ncn2CCN1CCOCC1 | -13.3 | 6.2 | 22.2 | 17.4 | -17.9 | -0.3
CCCc1nnc(-c2cc(OC)c(OC)c(OC)c2)o1 | 6.9 | 9.6 | 5.6 | 4.4 | 11.8 | -0.3
O=C(O)/C(=C\c1ccc(Br)cc1)c1ccc(S(=O)(=O)N2CCCCC2)s1 | -2.2 | 1.5 | -0.3 | -18.5 | -3.8 | -0.4
O=C(Nc1cccc2c1C(=O)NC2=O)c1ccc(S(=O)(=O)N2CCCC2)cc1 | 10.3 | -4.0 | 2.9 | 19.8 | -26.9 | -0.1
CCOc1cccc2cc(-c3nc4ccc(C(=O)O)cc4[nH]3)c(=O)oc12 | . | 22.9 | . | -1.2 | . | 0.6
CCOc1ccc(Nc2nnc(SCc3nc4ccccc4c(=O)[nH]3)s2)cc1 | 2.4 | 16.9 | 2.1 | 1.3 | -21.7 | -0.7
COCCn1c(C)cc(C(=O)COC(=O)c2cncc(Br)c2)c1C | 6.9 | -12.9 | 1.7 | 11.1 | -4.3 | -0.6
O=C(CC1(C(F)(F)F)OCCO1)Nc1ccc2c(c1)OCO2 | 2.0 | 0.2 | 5.1 | 4.2 | -9.4 | 0.1
CN(C)S(=O)(=O)N1CCN(c2ccc([N+](=O)[O-])cc2)CC1 | -11.8 | 9.8 | 1.7 | 7.2 | 1.5 | 0.0
NC(=O)c1sc2nc(-c3cccnc3)ccc2c1N | -23.5 | 32.6 | ? | ? | -5.0 | 1.2
CCCNC(=O)c1ccc(OC)cc1OC | 2.4 | 7.4 | 5.9 | 26.1 | -4.7 | -0.8
COC(=O)COc1cc(C)cc2oc(=O)c(CC(=O)OC)c(C)c12 | 0.8 | 4.9 | 5.7 | -1.1 | -7.1 | -0.6
O=C1OC(c2ccc3c(c2)OCO3)N(C(=O)c2ccc(Cl)c(Cl)c2)c2ccccc21 (configuration not stated) | -9.4 | 5.1 | 1.1 | 13.9 | -14.4 | 1.3
Cc1cc(=O)c(C(=O)Nc2cccc(N3CCCC3=O)c2)nn1-c1ccccc1F | 1.7 | -13.1 | -0.8 | -8.2 | -10.2 | -0.1
O=C(CSc1nnc(Nc2ccccc2F)s1)c1cc2ccccc2o1 | -0.6 | 16.3 | 3.2 | -3.8 | -4.8 | 0.6
COc1ccc(C(=O)Nc2ccccc2N2CCOCC2)cc1[N+](=O)[O-] | 3.6 | -3.1 | -10.1 | -9.7 | -9.9 | 0.3
CCOC(=O)C1CCN(S(=O)(=O)c2ccccc2[N+](=O)[O-])CC1 | 1.1 | 1.1 | . | . | 4.6 | 2.8
COc1ccc(NC(=O)C2CCC(CNc3c(N4CCCCC4)c(=O)c3=O)CC2)c(OC)c1 (configuration not stated) | 4.4 | 6.0 | -8.0 | 3.1 | -14.6 | -0.4
COc1ccccc1N1CCN(CCCC(=O)c2ccc(F)cc2)CC1 | -7.3 | -1.7 | -16.5 | . | -35.0 | 0.6
COc1ccc(C(C#N)N2N=C(C)CC2(C)C)cc1OC (configuration not stated) | 3.8 | 7.7 | 5.1 | 2.5 | -6.8 | -0.8
c1ccc(CCc2ccccc2-c2nc(-c3ccccn3)no2)cc1 | 7.8 | 6.6 | -0.7 | 18.5 | -10.9 | 1.5
CCN(CC)C(=O)c1cnn(-c2ccccc2)c1NC(=O)c1cccs1 | -1.7 | -4.7 | 3.1 | 3.4 | 3.1 | -0.5
COc1cc2ccc(NC(C)=O)cc2cc1OC | 4.3 | 4.0 | 0.0 | . | -13.5 | 0.0
N#CCCC1(CCC#N)c2ccccc2C(=O)c2ccccc21 | 1.1 | . | -4.8 | . | -12.3 | -0.2
O=C(Cn1ncc2c([nH]c3ccccc32)c1=O)N1CCOCC1 | -2.7 | 1.7 | . | 3.9 | -4.0 | 0.9
O=C(Nc1c2c(nn1-c1ccc(F)cc1)CS(=O)(=O)C2)C12CC3CC(CC(C3)C1)C2 | 1.7 | 16.7 | 6.5 | -19.4 | -11.3 | -0.7
CC(=O)Nc1cc(-c2cccc(F)c2)cn2c(-c3ccccc3)cnc12 | -5.0 | . | 0.8 | . | -7.9 | -0.3
Cc1ccc(S(=O)(=O)/N=C(/NC(=S)Nc2ccccc2)c2ccccc2)cc1 | -1.8 | 7.8 | 3.8 | -0.9 | -14.7 | 0.1
COc1ccc(-c2ccc(OC(=O)NC3CCS(=O)(=O)C3)cc2)cc1 (configuration not stated) | -3.0 | 5.1 | . | -2.9 | -17.3 | -1.1
Cc1cc(=O)[nH]c(Cc2ccc(OC(C)C)cc2)n1 | 4.5 | -11.9 | 10.7 | . | 5.3 | 0.5
CCn1c2ccc(/C(C)=N\O)cc2c2cc(/C(C)=N\O)ccc21 | 1.6 | 0.4 | 6.6 | 2.0 | 6.4 | -0.8
CC(C)CN1C(=O)C(=O)N(CC(=O)Nc2cccc(Cl)c2Cl)C1=O | 4.9 | -6.2 | 1.3 | -6.7 | -1.3 | 0.5
O=c1c(Cl)nc2cc(Cl)ccc2n1CCNc1ncc(C(F)(F)F)cc1Cl | 12.8 | -8.4 | 7.3 | 2.2 | 18.0 | -1.3
CCC1C(=O)C(CC)C(c2ccccc2)NC1c1ccccc1 (configuration not stated) | 15.1 | -16.4 | 20.3 | -21.8 | -4.1 | 1.6
CCOC(=O)c1cnc(-c2ccccc2)nc1Oc1ccc(Cl)c(Cl)c1 | 3.9 | 3.3 | 8.1 | . | -7.7 | -0.8
The results go on.
SMILES | Six1-Eya2 blk | TRPML1 blocker | CtBP-E1A blk | TRPV1 potentiator | D2 PAM | TRPML1 agonist
O=C(OCCn1cncn1)c1cc2ccccc2oc1=O | 4.1 | -6.7 | 4.1 | 9.9 | 12.8 | -0.3
O=C(CN1C(=O)COc2ccccc21)NCCCN1CCN(Cc2ccccc2)CC1 | 1.9 | -0.1 | 1.8 | 13.3 | -17.8 | 0.2
COc1ccc2c(CC(=O)NCCN3C(=O)S/C(=C\c4cccnc4)C3=O)coc2c1 | 1.1 | -9.3 | -4.0 | -1.3 | 0.2 | 0.2
COc1ccc(N(CC(=O)N2CCN(Cc3ccccc3)CC2)S(C)(=O)=O)c(OC)c1 | 0.4 | -5.9 | 4.4 | -2.6 | -15.4 | -0.6
CC(Cc1ccccc1)NC(=O)CCNNC(=O)c1ccncc1 (configuration not stated) | -14.2 | 6.2 | 5.3 | . | -16.0 | -0.4
CCOC(=O)CC1=C(C(=O)OCC)C(c2cccnc2)C(C#N)=C(N)O1 (configuration not stated) | 6.2 | 12.2 | -0.8 | -1.9 | -3.5 | -0.1
Cc1cc2nc(C3CCCCC3)c(Cc3ccccc3)n2c(C)c1Br | 0.9 | -9.5 | 4.2 | . | -7.7 | -0.4
CCN(Cc1ccccc1)C(=O)CCc1nc(CN2CCN(C(=O)c3ccc([N+](=O)[O-])cc3)CC2)no1 | 3.7 | 0.9 | 5.1 | -0.3 | -11.2 | -0.2
COc1nc(OCCNC(=O)Nc2ccccc2)nc(N(C)C)n1 | 2.7 | -1.5 | -0.4 | 11.2 | -10.2 | -0.2
O=C(CN1CCN(Cc2ccccc2Cl)C1=O)NCCCN1CCOCC1 | -0.5 | -0.1 | . | -11.9 | -10.7 | -0.2
CCCN1CCCc2cc(CN)ccc21 | ? | -0.5 | -19.5 | 11.2 | 50.4* | 2.5
CCCCn1c(N)c(N(CCOC)C(=O)CSc2nnc(-c3ccco3)n2CC)c(=O)[nH]c1=O | 6.0 | -5.5 | . | . | 7.9 | -0.5
CCCN(CCC)Cc1cc(=O)oc2ccc3ccccc3c12 | 28.2 | 11.4 | 28.3 | . | -6.0 | 1.9

Two compounds drawn at random from the list so far:
SMILES | Six1-Eya2 blk | TRPML1 blocker | CtBP-E1A blk | TRPV1 potentiator | D2 PAM | TRPML1 agonist
CCOC(=O)CC1=C(C(=O)OCC)C(c2cccnc2)C(C#N)=C(N)O1 (configuration not stated) | 6.2 | 12.2 | -0.8 | -1.9 | -3.5 | -0.1
O=C(OCCn1cncn1)c1cc2ccccc2oc1=O | 4.1 | -6.7 | 4.1 | 9.9 | 12.8 | -0.3

An excerpt of these results, as a markdown table:
| SMILES | Six1-Eya2 blk | TRPML1 blocker | CtBP-E1A blk | TRPV1 potentiator | D2 PAM | TRPML1 agonist |
| --- | --- | --- | --- | --- | --- | --- |
| CCOC(=O)CC1=C(C(=O)OCC)C(c2cccnc2)C(C#N)=C(N)O1 (configuration not stated) | 6.2 | 12.2 | -0.8 | -1.9 | -3.5 | -0.1 |
| CCCN(CCC)Cc1cc(=O)oc2ccc3ccccc3c12 | 28.2 | 11.4 | 28.3 | . | -6.0 | 1.9 |
